# Sa helicase inh: S. aureus DNA helicase inhibition | actives 0.05% (n = 120,000) | purified S. aureus helicase, fluorescence unwinding assay; about half of the hits fall short of the stated cut | inhibition, %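 (tested at about 80 µM)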 | AID 485395;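 active = both duplicates at 50% or more, or one of them with a favoured structure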;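 note: 0% = mean of negative control wells and 100% = mean of positive control wells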
# MgrA DNA FP: alters Staphylococcus aureus MgrA binding to DNA | fluorescence polarization | inhibition, %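 (about 10 µg/mL by stock and volumes)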 | AID 602314 | actives 0.13% (n = 84,000);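 active = above 50% in either of two replicates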;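 note: 0% = protein plus DNA without compound and 100% = DNA alone without protein; higher means less MgrA bound to DNA so lower polarization; one replicate is shown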
# * marks the source's active call; other numbers are inactive results; x = not tested or not shown. These rows are one share of the data; count on the stated rates, not on these rows.
Structure	Sa helicase inh	MgrA DNA FP
CNCCc1ccncc1	19	-0.7
COc1ccc(C2(O)CC3CCC(C2)N3)cc1 (stereo not drawn)	-16	x
Cc1nc(S(=O)(=O)N2CCCCC2c2cccnc2)cn1C (stereo not drawn)	x	3.2
CCOc1ccc(Br)cc1C=C1C(=O)NC(=S)NC1=O	x	12
CN(CCc1ccccc1)Cc1c(F)cccc1F	-13	3.4
CCCCn1c(=O)c(C(=O)Nc2nccs2)c(O)c2ccccc21	9	0.6
Cc1cccc(CC(=O)N2CCC3(CC2)OCCO3)c1	3	1.3
Cc1cc2c(n1-c1ccc(C(=O)N3CCC4(CC3)OCCO4)cc1)CCC(C)C2 (stereo not drawn)	3	2.1
C1=CCC2CC=CC(C1)N2 (stereo not drawn)	1	-0.9
C=CC1CN2CCC1CC2C(OC(=O)OCC)c1ccnc2ccc(OC)cc12 (stereo not drawn)	4	x
CN1C(=O)C(=C/C=C/c2ccccc2)C(=O)N(C)C1=O	2	8.9
CC(=O)c1c(O)c(C)c(O)c(Cc2c(O)c3c(c(C(=O)/C=C/c4ccccc4)c2O)OC(C)(C)C=C3)c1O	x	-0.2
CCOc1cc2c(cc1OCC)-n1cccc1C(c1coc3ccccc3c1=O)NC2 (stereo not drawn)	7	x
O=C(Cn1cc(C(=O)c2ccccc2)c2ccccc21)NCc1ccco1	-5	0.7
CC(=O)OC1C2CCC1C(N1CCCCC1)CC2 (stereo not drawn)	10	-1.5
CN1CCSC1=Nc1cccc(C(F)(F)F)c1	9	x
COCc1cc(OC(=O)N(C)C)nc2c1c(C)nn2C	x	1.9
OCCN1CCN(Cc2ccccc2F)CC1	x	-1.5
CCCCC/C=C\C/C=C\C/C=C\C/C=C\CCCCCC(=O)NCCO	x	-1.4
CC1CC2C/C(=N\O)CC1N(C)C2 (stereo not drawn)	x	2.3
CCCC1COC(Cn2cncn2)(c2ccc(Cl)cc2Cl)O1 (stereo not drawn)	0	x
CCOc1ccc(C(Nc2ccccc2)P2(=S)OCCCO2)cc1 (stereo not drawn)	12	-0.4
CC(c1ccccc1F)n1cc(C(=O)NC2CCCC2)nn1 (stereo not drawn)	1	-1.6
CN(C)/C=C(\C=[N+](C)C)c1cc(/C(C=[N+](C)C)=C\N(C)C)[nH]n1	-1	-1.5
FC(F)(F)c1ccc(C2C3C(=NN2c2cc(Cl)ccc2Cl)C2CCN3CC2)cc1 (stereo not drawn)	x	-2.5

# An excerpt from above in order of number of heavy atoms, highest first:
Structure	Sa helicase inh	MgrA DNA FP
CN1C(=O)C(=C/C=C/c2ccccc2)C(=O)N(C)C1=O	2	8.9
CC1CC2C/C(=N\O)CC1N(C)C2 (stereo not drawn)	x	2.3
C1=CCC2CC=CC(C1)N2 (stereo not drawn)	1	-0.9

# Next results
Structure	Sa helicase inh	MgrA DNA FP
CCOC(=O)C1CC2CCCN2C12C(=O)N(Cc1ccccc1)c1ccccc12 (stereo not drawn)	-3	x
Cc1c(C(=O)O)ncn1Cc1ccc(Cl)cc1	x	-1.7
C=CCN1C(=O)/C(=C/c2cc(C)n(-c3ccccn3)c2C)C(=O)NC1=S	10	3.2
O=C1CN(C(=O)COC(=O)Cc2ccccc2)c2ccccc2N1	-17	-1.4
O=C1C=C2C3CCN(CC3)C2CC1 (stereo not drawn)	7	0.9
CN(C)c1ccc(C=C(C#N)C#N)c(F)c1C#N	x	15
COc1ccc(C(CN(C)C)C2(O)CCCCC2)cc1 (stereo not drawn)	x	5.3
CC(=O)OC1CCC2(C)C3C(=O)CC4(C)C(=O)CCC4C3CCC2(C)C1 (stereo not drawn)	x	-2.6
CC(NC1=NCCS1)c1ccccc1 (stereo not drawn)	-22	1.2
O=C1NC(=S)N(c2ccc(Br)cc2)C(=O)/C1=C\c1ccc(-c2ccccc2C(=O)O)o1	x	16
N#CC(C#N)=C(C#N)c1ccc(Nc2ccccc2)cc1	-2	-0.8
COc1cc2c(c(OC)c1OC)-c1ccc(O)c(=O)cc1C(NC(C)=O)CC2 (stereo not drawn)	-2	x
N#CC(C#N)=Cc1c[nH]c2ccccc12	x	-1.6
NC(=O)COC(=O)COc1ccc(Cl)cc1Cl	-22	-2.8
COC(=O)C(O)(c1ccc(N(C)C)cc1)C(F)(F)F (stereo not drawn)	-15	x
O=C(O)c1sc2cc(Cl)ccc2c1Cl	8	x
CC(C)[C@]1(O)[C@@H](OC(=O)c2ccc[nH]2)[C@@]2(O)[C@@]3(C)C[C@]4(O)O[C@@]5([C@H](O)[C@@H](C)CC[C@]35O)[C@@]2(O)C41C	x	-0.1
CC1CCCN(C(c2ccc(F)cc2)c2c(O)[nH]c(=O)[nH]c2=O)C1 (stereo not drawn)	7	6.2
NC(=O)CN1C2CCC1CC(NC(=O)C1CC1)C2 (stereo not drawn)	2	1.2
C=CCc1c(C)nc(-c2ccc(F)c(Cl)c2)nc1OC(=O)N(C)C	x	-4.1
Cc1nc(SCc2c(F)cccc2Cl)nc(OC(=O)N(C)C)c1C	x	-3.0
C[N+]1(CCOCC2CCC[N+]3(C)CCCCC23)CCCCC1 (stereo not drawn)	12	1.9
CC1CN=C(Nc2cccc3ccccc23)S1 (stereo not drawn)	16	-0.8
N#CC(C#N)=Cc1ccc(N2CCCCC2)cc1	-18	-1.4
FC(F)(F)c1cnc(N2CCNCC2)c(Cl)c1	x	-1.9
O=c1c2ccccc2nc(-c2ccco2)n1-c1ccc(Cl)cc1	15	-0.1
COc1ccc(CCC(C)N)cc1 (stereo not drawn)	6	6.5
CC(=O)N1N=C(c2cccnc2)OC1c1ccccc1Cl (stereo not drawn)	x	3.0
CC12C/C(=C(\O)C(F)(F)F)C(=O)C=C1CCC1C2CCC2(C)C(O)CCC12 (stereo not drawn)	x	-2.5
Cc1cc(Br)ccc1N1C(=O)CC(=O)NC1=S	3	3.3
N#Cc1sc2nc3c(cc2c1N)CCC3	x	1.6
COc1cc(C2NN=C3C4CCN(CC4)C32)cc(OC)c1OC (stereo not drawn)	x	5.8
CCCc1nc2ccccc2c(=O)n1-c1ccccc1	-1	-2.5
Nc1ccc(Br)cc1C(=O)c1ccccc1	1	-0.2
c1ccc(CN2CCc3nc4ccccc4cc3C2)cc1	x	-0.1
CN1CCCN(C(=O)Cc2cccs2)CC1	-1	0.5
O=C(c1cnn(-c2ccccc2)c1-n1cccc1)N1CCC2(CC1)OCCO2	-10	1.3
CC1(C)CC2=[N+]([O-])CN(O)C2C(C)(C)N1O (stereo not drawn)	x	-1.8
Cn1cncc1C(O)c1ccccc1 (stereo not drawn)	10	x
CC(C)P(c1ccc(C#N)cc1)C(C)C	-10	1.2
NCCc1c[nH]c2ccccc12	x	2.3
CC(=O)N[C@@H](C)C(=O)NCc1ccc2c(c1)OCO2	20	x
COP1(=S)/C(=C2/N(C)c3ccccc3C2(C)C)C=NN1C (stereo not drawn)	-4	x
CC(C)(C)NC(=O)[C@@H]1C[C@@H]2CCCC[C@@H]2CN1	-7	x
CN1N=C(c2ccccc2)NN(C)P1(=S)c1ccccc1 (stereo not drawn)	-6	x
O=C(C1CC(=O)N(C2CCCCCCC2)C1)N1CCC2(CC1)OCCO2 (stereo not drawn)	11	x
Cc1cccc(-c2nc(C)cc(OC(=O)N(C)C)n2)c1	x	-1.4
C=C(C)Cc1c(C)nc(-c2ccc(C)c(Cl)c2)nc1OC(=O)N(C)C	x	0.0
CN(C)C(=O)Oc1ccc(Cl)c2cccnc12	-4	x
Cc1ccc(Oc2c(C)nc(-c3ccccc3)nc2OC(=O)N(C)C)cc1	x	3.1

# Next part.
Structure	Sa helicase inh	MgrA DNA FP
O=C(Cc1ccccc1)Oc1cccc(-n2cnnn2)c1	0	3.5
Cc1ccc(C2=NC3(CCNCC3)NC2=S)cc1	-10	x
COc1cc(NC(=O)CN2C3CCC2CC(O)(c2cccnc2)C3)cc(OC)c1 (stereo not drawn)	21	1.6
CN(C)C1(CNC(=O)Cc2ccccc2F)CCCCC1	9	x
CN1CCN(c2cn[nH]c(=O)c2Cl)CC1	-12	x
C=CCN1C(=O)NC(=O)/C(=C\c2ccc(O)c(O)c2)C1=O	8	16
O=C(Nc1ccccc1F)OC1CN2CCC1CC2 (stereo not drawn)	x	-0.7
CN1C(=O)C(Cc2cccs2)C(=O)N(C)C1=O	14	-2.6
CC1CN(CCC(=O)Nc2ccc(Cl)cc2C(=O)c2ccccc2)CC(C)O1 (stereo not drawn)	x	2.5
COC(=O)c1ccc(-n2c(C)nc3ccccc3c2=O)cc1	9	x
CN(C)C(=O)Oc1nnc(SCCS(=O)(=O)c2ccc(F)cc2)n1C1CC1	-15	x
N#Cc1ccc(NC(=O)CSC2=Nc3ccccc3C3CC=NN23)cc1Cl (stereo not drawn)	-11	x
CN(C)c1ccc(/C=C/C=C2/C(=O)NC(=O)N(c3ccccc3)C2=O)cc1	-18	4.8
COc1ccc(/C=C/C(=O)N2c3ccc(C)cc3C3CN(C)CCC32)cc1 (stereo not drawn)	-8	x
O=C(c1ccccc1)c1cn(Cc2ccc(F)cc2)c2ccccc12	13	-0.2
COc1ccc(-n2c(-c3ccco3)nc3ccccc3c2=O)cc1	6	1.9
CN(C)C(=O)Oc1cc(CSC(C)(C)C)nc(-c2cccs2)n1	x	1.5
CC(C)(NO)C(=O)c1ccccc1	x	-3.1
N#CC(C#N)=Cc1cccc([N+](=O)[O-])c1	x	-0.3
CC(=O)NC(C(=O)NCc1ccc(C)cc1)C(C)C (stereo not drawn)	15	x
O=C(c1cc(=O)[nH]c2ccc(Br)cc12)N1CCC2(CC1)OCCO2	-14	x
O=c1cccc2n1CC1CC2CN(c2ncnc3c2cnn3-c2ccc(Cl)cc2)C1 (stereo not drawn)	1	0.9
Clc1cccc(C2NCc3ccccc3-n3cccc32)c1 (stereo not drawn)	-16	0.4
CN1CCN(c2nc3c(c(=O)[nH]2)CCCC3)CC1	7	-1.4
O=C1CC2CCCC(C1)N2Cc1ccccc1	x	-2.4

# Record cards, as listed above. Screens in order: Sa helicase inh, MgrA DNA FP
# O=C1CC2CCCC(C1)N2Cc1ccccc1 across the screens: x, -2.4
# O=C(c1ccccc1)c1cn(Cc2ccc(F)cc2)c2ccccc12 across the screens: 13, -0.2
# COC(=O)c1ccc(-n2c(C)nc3ccccc3c2=O)cc1 across the screens: 9, x

# Next part
Structure	Sa helicase inh	MgrA DNA FP
N#C/C(=C\c1cnc[nH]1)S(=O)(=O)c1cccs1	x	-2.0
Cc1cc(C=C2C(=O)N(C)C(=O)N(C)C2=O)c(C)n1-c1ccc(Br)cc1	x	0.9
O=C1OCCN1N=Cc1ccc([N+](=O)[O-])o1	x	3.9
c1ccc2c(CCNC3CCNCC3)c[nH]c2c1	0	-0.3
Clc1ccc(NC2=NCCCS2)cc1Cl	4	-0.6
CC(C)Oc1cccc(NC(=O)c2ccccc2C(F)(F)F)c1	x	0.1
CCn1cc(C=C2C(=O)NC(=O)NC2=O)c2ccccc21	-87	x
CC[C@]12C=CCN3CCC4(c5ccc(OC)cc5N(C)[C@H]4C(O)(C(=O)OC)[C@@H]1OC(C)=O)C32 (stereo partly drawn)	-78	x
CC(C)(C)c1nc(N2CCN(C(=O)c3ccco3)CC2)c2nnn(Cc3ccccc3Cl)c2n1	-18	3.2
Cc1nc(-c2ccc(Cl)cc2)nc(OC(=O)N(C)C)c1C	x	0.8
Nc1ccc(S(=O)(=O)N2CCCCC2c2cccnc2)cc1 (stereo not drawn)	6	x
C[C@]12CCC(=O)C=C1C=C[C@@H]1[C@@H]2CC[C@@]2(C)[C@H]1CC[C@@]2(O)CCC(=O)O	x	-2.2
CN1/C(=C\C=C2C(=O)NC(=O)NC2=O)C(C)(C)c2ccccc21	-124	-6.4
CCCc1cc(=O)oc2cc(OC(=O)N(C)C)ccc12	x	-0.9
CN(C)P1(N(C)C)=Nc2c(c(N)nn2C)C(c2ccccc2)=N1	-1	x
C1=C(c2c[nH]c3ccccc23)CCNC1	-239	x
O=C1NC(=O)N(Cc2ccccc2)C(=O)/C1=C\c1ccccc1	6	17
CC(N)C(=O)c1cccs1 (stereo not drawn)	7	x
O=S(=O)(NC1CN2CCC1CC2)c1ccc(Cl)cc1 (stereo not drawn)	-16	x
COC(=O)c1cc2c(s1)=NC=NP=2(N1CCOCC1)N1CCOCC1	13	x
CC1(C)CC(NC(=O)CN2CCCC2=O)CC(C)(C)N1	7	0.9
FC(F)(F)c1cccc(N2CCN(c3ncnc4nc[nH]c34)CC2)c1	-17	x
O=C(Nc1ccc(Cl)cc1C(=O)c1ccccc1)c1ccc(Cl)cc1Cl	x	1.6
CCC1(c2ccccc2)C(=O)N(COC)C(=O)N(COC)C1=O	21	0.3
CN(C)CC(C)(O)c1ccc(Cl)cc1 (stereo not drawn)	5	0.2
Cc1ccc(CNC2=NCCS2)cc1	x	3.3
Nc1ccc(NC2=NCCCS2)cc1	5	19
CC(C)OP(C)(=O)C(=O)Oc1ccccc1 (stereo not drawn)	5	x
CCOc1ccc(N2Cc3ccccc3C2=N)cc1	5	0.3
CCOC(=O)C1=C(c2ccccc2)OC(N)=C(C#N)C12C(=O)Nc1ccc(Br)cc12 (stereo not drawn)	x	-0.4
CCC1CCCCN1P(=O)(c1ccc(C)o1)C(C)(C)C (stereo not drawn)	1	x
CNC(=O)Oc1cccc2ccccc12	x	2.4
CCOP(=S)(OCC)N1CCOCC1	10	1.0

# Screening results from PubChem.
